PV pol inh = poliovirus RNA polymerase inhibition; P03300; poliovirus polymerase elongation, fluorescence polarization; stronger effect = lower value; % elongation, % (compound at 16.7 µg/mL); 150,000 compounds, 0.66% hits; AID 588519; in the data active = % elongation below about 90%; also: some results filed as inactive read as strong as hits
Mtb MenB inh = inhibitors of Mycobacterium tuberculosis MenB enzyme; P9WNP5; AID 540299; inhibition, %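 (about 12 µg/mL by stock and volumes)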; MenB enzyme assay, absorbance read-out; some hits fall short of the stated cut; 100,000 compounds, 0.43% hits;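 active = mean of two replicates above 30%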;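 also: 0% = no compound and 100% = wells with inactive enzyme; the first replicate is given; strong numbers were not always called active; inactives centre near -10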
Target sequence (P9WNP5 whole entry, looked up): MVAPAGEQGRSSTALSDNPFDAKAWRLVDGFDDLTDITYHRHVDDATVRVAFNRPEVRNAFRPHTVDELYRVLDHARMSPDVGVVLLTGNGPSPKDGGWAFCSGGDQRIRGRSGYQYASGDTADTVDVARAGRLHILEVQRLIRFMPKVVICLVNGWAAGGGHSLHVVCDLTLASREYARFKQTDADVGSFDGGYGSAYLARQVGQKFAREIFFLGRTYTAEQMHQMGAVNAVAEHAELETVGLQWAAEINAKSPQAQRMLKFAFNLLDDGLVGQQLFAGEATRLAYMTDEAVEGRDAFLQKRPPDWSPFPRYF
MbtI inh = inhibitors of Mycobacterium tuberculosis siderophore enzyme MbtI. inhibition, %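 (about 17 µg/mL by stock and volumes)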. purified MbtI enzyme, fluorescence intensity read-out. 100,000 compounds, 0.89% hits;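 active = above 50% in both replicates, above 80% if mildly self-fluorescent; inactive = the rest, strongly fluorescent compounds included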;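 also: 0% = mean of negative and 100% = mean of positive controls; one replicate is shown; some compounds called inactive have numbers as strong as hits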
Target sequence (P9WFX0 whole entry, looked up): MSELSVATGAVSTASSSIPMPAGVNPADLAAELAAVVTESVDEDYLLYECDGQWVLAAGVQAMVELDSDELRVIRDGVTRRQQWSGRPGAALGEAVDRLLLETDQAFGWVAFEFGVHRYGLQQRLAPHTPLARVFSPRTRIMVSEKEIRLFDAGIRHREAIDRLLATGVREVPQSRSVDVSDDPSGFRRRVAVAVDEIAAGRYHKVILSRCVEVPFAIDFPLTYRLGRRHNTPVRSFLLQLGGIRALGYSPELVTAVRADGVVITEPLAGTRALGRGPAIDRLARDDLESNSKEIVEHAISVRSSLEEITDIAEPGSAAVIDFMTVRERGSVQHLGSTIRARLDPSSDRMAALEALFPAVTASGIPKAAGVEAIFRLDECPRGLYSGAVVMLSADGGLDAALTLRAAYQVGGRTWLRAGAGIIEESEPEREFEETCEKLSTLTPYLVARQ
PV pol inh intensity = also measured in PV pol inh; calls as there; % elongation; measured here: total intensity read-out; formula for this scale not given here;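 total fluorescence in place of polarization; lower means less elongation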
Starred values were filed as active, the others as inactive; i = inactive; nt = no result given; & = joins results of further samples.

SMILES | PV pol inh | PV pol inh intensity | Mtb MenB inh | MbtI inh
O=C(c1cnn(-c2ccccc2)n1)N1CCCC1c1nc2ccccc2s1 (stereo unspecified) | 101 | 102 | -26 | 20
O=C1C2SCCN2C(=S)N1c1cccc(C(F)(F)F)c1 (stereo unspecified) | 100 | 104 | 2 | 70*
Cc1cc(=S)nc(-c2ccccn2)[nH]1 | 155 | 177 | -40 | 81*
COc1ccc(-c2noc(CN(C)C(C)=O)n2)cc1OC | 104 | 99 | -43 | -16
Cc1cc(C)c(C#N)c(SCC(=O)C(C)(C)C)n1 | 96 | 88 | -28 | nt
Cc1ccc(S(=O)(=O)Nc2ccccc2N=Cc2ccc[nH]2)cc1 | 102 | 97 | nt | 13
COc1cccc(NC2=CC(=O)CC(C)(C)C2)c1 | 102 | 104 | nt | 19
O=S(=O)(NCC1CCCCC1)c1ccc2c(c1)OCCO2 | 102 | 103 | -8 | 8
Cc1cc(C)n(C(=O)CNC(=O)c2ccc(Br)cc2)n1 | 100 | 102 | 4 | -2
Cc1ccc(-c2nn3cnnc3c3ccccc23)cc1C | 96 | 96 | -8 | 22

Complete entries, looked up by structure. Order of values: PV pol inh | PV pol inh intensity | Mtb MenB inh | MbtI inh
`Cc1cc(C)c(C#N)c(SCC(=O)C(C)(C)C)n1` is entered as 96 | 88 | -28 | nt
`O=C(c1cnn(-c2ccccc2)n1)N1CCCC1c1nc2ccccc2s1` (stereo unspecified) is entered as 101 | 102 | -26 | 20
`Cc1ccc(-c2nn3cnnc3c3ccccc23)cc1C` is entered as 96 | 96 | -8 | 22
`O=C1C2SCCN2C(=S)N1c1cccc(C(F)(F)F)c1` (stereo unspecified) is entered as 100 | 104 | 2 | 70*
`Cc1cc(C)n(C(=O)CNC(=O)c2ccc(Br)cc2)n1` is entered as 100 | 102 | 4 | -2

More compounds follow.
SMILES | PV pol inh | PV pol inh intensity | Mtb MenB inh | MbtI inh
CC(C)CN(CC(C)C)S(=O)(=O)c1ccc(CCN2C(=O)c3cccnc3C2=O)cc1 | 102 | 104 | -11 | -6
O=C(Cn1cnc2ccccc2c1=O)c1c[nH]c2ccccc12 | 104 | 105 | 13 | 9
Nc1c(C(=O)O)sc(C(F)(F)F)c1-c1ccccc1 | 100 | 94 | -15 | -26
O=C(Nc1cccc(C(F)(F)F)c1)c1ccc2ccccc2c1 | 101 | 102 | -54 | 9
CCCNC(=O)c1ccccc1OC(C)=O | 105 | 106 | -40 | nt
Cc1ccccc1NC(=O)C(NS(=O)(=O)c1ccc2c(c1)c(=O)n(C)c(=O)n2C)c1ccccc1 (stereo unspecified) | 100 | 104 | -10 | 4
Cc1ccc(CSc2nc3ccccc3c(=O)n2-c2ccc(C(=O)N3CCOCC3)cc2)cc1 | 101 | 97 | 1 | 0
CC(C)(C)c1ccc(CNc2ccccn2)cc1 | 100 | 101 | -34 | -16
CN1C2CCC1CC(NC(=O)Cc1ccccc1F)C2 (stereo unspecified) | 107 | 109 | -15 | -5
Cc1ccc(N=C2NN=C(c3ccccc3)C(C(=O)Nc3ccc4c(c3)OCO4)S2)cc1 (stereo unspecified) | 85* | 84* | -7 | 39
CC(C)C(C)NC(=O)CSc1nnc(COc2ccccc2Cl)o1 (stereo unspecified) | 104 | 110 | -6 | -7
Cc1ccc(-c2cc(C(=O)OCCn3c(C)csc3=O)c3ccccc3n2)o1 | 99 | 103 | 1 | 14
COCCNC(=O)Cn1cc(S(=O)(=O)N2CCN(c3ccccc3F)CC2)c2ccccc2c1=O | 97 | 98 | 11 | 10
Cc1nc2ccccc2c(=O)n1/N=C1\C(=O)N(C)c2ccccc21 | 102 | 103 | -20 | -11
O=C(COC(=O)Cc1cccc2ccccc12)Nc1ccc2[nH]c(=O)[nH]c2c1 | 100 | 96 | -18 | 8
O=C(NCCc1ccccc1)c1ccccn1 | nt | nt | 0 | -11
CCOc1ccc(NCC(=O)Nc2ccc(F)cc2)cc1 | 104 | 107 | -5 | nt
CCN(Cc1nc2ccccc2c(=O)[nH]1)Cc1nc2cc(C(F)(F)F)ccc2c(=O)[nH]1 | 117 | 121 | -43 | -5
Cc1cc(=O)oc2c1c(C)nn2CCO | 100 | 103 | 6 | nt
CCN(CC(=O)NC1CCCc2ccccc21)Cc1nc2ccccc2c(=O)[nH]1 (stereo unspecified) | 105 | 99 | -17 | 15
CC(C)(C)C1=Nn2c(nnc2-c2ccccc2)SC1 | 93 | 88 | -1 | 64*
C=CCNC(=S)NN=C1CCCCCC1 | 103 | 99 | -31 | -12
CCCCn1ccnc1C(=O)c1cccc(S(=O)(=O)N2c3ccccc3CC2C)c1 (stereo unspecified) | 99 | 92 | -51 | 4
COC(=O)C1CCC2C3CC=C4CC(O)CCC4(C)C3CCC12C (stereo unspecified) | 102 | 105 | nt | -7
CCOC(=O)c1sc(C)c2c1NC(c1ccc(N(C)C)cc1)NC2=O (stereo unspecified) | 105 | 110 | -20 | -36
N#Cc1ccccc1Cn1c(=O)c2c(ncn2Cc2ccccc2)n(Cc2ccccc2)c1=O | 99 | 101 | -31 | 15
O=S(=O)(CCS(=O)(=O)c1ccc(Cl)cc1)c1ccccc1 | 102 | 101 | -12 | -3
O=C(CC1CCCC1)Nc1nc2ccccc2[nH]1 | 102 | 107 | -32 | -1
C=C(C)C(=O)NC1=NN(c2ccccc2)C(=O)C1 | 101 | 104 | -11 | -6
CCOc1ccc(NC2=NC(C(=O)Nc3ccccc3)CC(=O)N2)cc1 (stereo unspecified) | 100 | 103 | 11 | 0
CN1/C(=C\C(=O)CSc2nncn2-c2ccccc2)C(C)(C)c2ccccc21 | 111 | 118 | -27 | -2
COCc1c(C(=O)OCCCCN2C(=O)c3ccccc3C2=O)oc2ccccc12 | 102 | 112 | -16 | -7
CC1CCc2c(sc(NC(=O)CSc3nnc4n3CCCCC4)c2C(N)=O)C1 (stereo unspecified) | 111 | 111 | -38 | 28
C=CCn1c(N)c(C(=O)NCc2ccccc2)sc1=S | 100 | 103 | -27 | -15
CCOC(=O)c1cc(CN2CCOCC2)c(C)o1 | 106 | 109 | 4 | nt
CC(C)c1oc2cc(O)ccc2c(=O)c1-c1nc2ccccc2n1C | 103 | 107 | -17 | nt
CC(=O)Nc1ccc(/C=C(\C#N)C(=O)NC2CCCCC2)cc1 | 105 | 100 | -1 | 13
Nc1cc(-c2ccccc2)c2ccccc2n1 | 102 | 102 | -15 | nt
Cc1ccc(-c2ccc(=O)n(CCC(=O)NCCN3C(C)CCCC3C)n2)cc1 (stereo unspecified) | 102 | 107 | 0 | 17
FC(F)(F)c1cc(-c2cccs2)nc(=S)[nH]1 | 99 | 99 | -1 | 8
CCn1c(CNc2nc(-c3ccccc3)cs2)nnc1SCC(=O)c1ccc(OC)cc1 | 100 | 100 | 22 | 20
N#C/C(=C1\CCCCCN1)c1nc2ccccc2[nH]1 | 99 | 106 | -2 | -8
CCc1nnc(NC(=O)[C@@H](NC(=O)c2cccc(S(=O)(=O)N(CC)CC)c2)C(C)C)s1 | 107 | 114 | -25 | -12
O=C(c1ccccc1)N(Cc1nnc(-c2ccc(Cl)cc2)o1)C1CC1 | 97 | 105 | -6 | 10
CCOC(=O)c1ccoc1CSc1nnc(Nc2ccc(C)cc2)s1 | 100 | 96 | -13 | -3
CCC(=O)Nc1ccc(-c2nc3ccc(OC(=O)CC)cc3c(=O)o2)cc1 | 102 | 102 | 6 | -6
CCn1cc(C(=O)O)c(=O)c2cc(S(=O)(=O)N(C)C)ccc21 | 105 | 102 | -3 | -4
O=C(NC(=S)Nc1ccccc1O)C1CCCCC1 | 104 | 95 | -28 | -3
N#Cc1ccc(OCC(=O)NCC2(N3CCCCC3)CCCCC2)cc1 | 104 | 113 | -14 | 10
N#C/C(=C(/O)CN1CCN(S(=O)(=O)c2ccc(Cl)cc2)CC1)c1nc2ccccc2[nH]1 | 107 | 117 | -8 | -2
More results.
SMILES | PV pol inh | PV pol inh intensity | Mtb MenB inh | MbtI inh
Cc1cc(C(=O)Cn2c(CO)nc3ccccc32)c(C)n1C | 105 | 111 | -28 | 12
Cc1occc1C(=O)Nc1sccc1C(N)=O | 98 | 104 | -1 | -225
Cc1cc(-c2csc(CC#N)n2)c(C)n1C1CC1 | 106 | 115 | -14 | 7
O=C(CSc1ncccc1C(=O)OCCN1C(=O)c2ccccc2C1=O)Nc1ccc2c(c1)OCO2 | 100 | 104 | -19 | 15
CC1CCc2[nH]c3ccc(C(=O)O)cc3c2C1 (stereo unspecified) | 101 | 100 | 1 | -30
CC(C)(C)CC(=O)NCc1ccc(S(N)(=O)=O)cc1 | 102 | 105 | -4 | nt
O=C(O)CCc1nc(=S)[nH][nH]1 | 104 | 110 | -14 | nt
O=C(Nc1cnn(C23CC4CC(CC(C4)C2)C3)c1)c1cc(-c2ccccc2)on1 | 100 | 101 | 16 | 9
CCC[N+]1(C)CCC2C(C1)c1ccccc1N2Cc1ccccc1 (stereo unspecified) | 100 | 96 | -21 | -68
C(=N\n1cnnc1)/c1ccccc1 | 100 | 104 | nt | -3
CC(C)CC1(C)NC(=O)N(CC(=O)c2ccc(Cl)s2)C1=O (stereo unspecified) | 116 | 121 | 8 | 4
O=C(OCc1ccc2ccccc2c1)c1ccco1 | 100 | 98 | -15 | -12
O=c1cc(CCl)c2cc3c(cc2o1)CCC3 | 105 | 101 | nt | -3
O=C(c1cc2c(s1)-c1ccccc1OC2)N(Cc1ccco1)C1CCCCC1 | 101 | 102 | -18 | 118
CC(C)Sc1nc2ccccc2n1CN1CCN(c2ccccn2)CC1 | 107 | 110 | -12 | 7
CN(Cc1ccc(Cl)c(Cl)c1)c1ccc(S(N)(=O)=O)cn1 | 101 | 103 | -1 | -18
O=C(COC(=O)c1n[nH]c2ccccc12)NCC1CCCCC1 | 102 | 92 | -22 | i
CN=C1SC(CC(=O)Nc2ccccc2F)C(=O)N1/N=C/c1ccc(O)c(OC)c1 (stereo unspecified) | 106 | 113 | -25 | -20
CCc1ccc(NC(=O)c2cc3c(s2)-c2ccccc2S(=O)(=O)C3)cc1 | 104 | 107 | -24 | -2
CCOC(=O)c1cn(CC2CC2)c2cc(F)c(F)cc2c1=O | 103 | 100 | -42 | -5
CCN(CC)S(=O)(=O)c1ccc(NC(=O)c2ccccc2)cc1 | 103 | 105 | -27 | -20
O=c1c2cnn(CCO)c2ncn1Cc1cccc2ccccc12 | 95 | 98 | 7 | 8
CCCCN(C)C(=O)c1[nH]c2ccccc2c1Sc1ccc(Cl)cc1 | 102 | 104 | -35 | 3
CC(=O)Oc1ccc(-c2nc3ccccc3s2)cc1 | 101 | 98 | -17 | -222
CC1CCCC(C)N1C(=O)c1cccc2c1-c1ccccc1C2=O (stereo unspecified) | 101 | 104 | 16 | 5
N#Cc1cnoc1N1CCCc2ccccc21 | 101 | 108 | -20 | nt
C=CCn1c(C)cc(C(=O)COC(=O)c2cncc(Br)c2)c1C | 106 | 102 | -10 | -6
O=C1/C(=C/c2cccc(F)c2)CS/C1=C\c1cccc(F)c1 | 102 | 104 | -7 | -1
COc1ccccc1N1CCN(C(=O)c2ccc(Cl)cc2)CC1 | 103 | 101 | -21 | -2
COc1ccc(N=Cc2ccc(N(C)CCC#N)cc2)cc1 | 104 | 104 | -4 | -9
N#Cc1ccc(NC(=O)CCCc2ccccc2)cc1 | 99 | 101 | -22 | 0
CCn1c2ccccc2c2cc(C#N)ccc21 | 100 | 101 | -28 | -69
O=C(NCc1ccncc1)C1CCN(C(=O)c2cccc(Cl)c2)CC1 | nt | nt | -1 | -3
O=C(NNc1c(Cl)cc(Cl)cc1Cl)c1ccc(=O)[nH]n1 | 106 | 101 | -17 | 2
COC(=O)CCc1nc2cc(Cl)ccc2n(Cc2ccccc2)c1=O | 103 | 104 | nt | -2
Cc1cc(OCC(=O)NC(C)(C)C)cc(C)c1Cl | 99 | 98 | -6 | -2
COC(=O)/C=C1\NC(=O)CS1 | 107 | 101 | -3 | 40
O=C(c1ccco1)N1CCN(C(=O)C2CCCN(c3nnc(-n4cccc4)s3)C2)CC1 (stereo unspecified) | 99 | 101 | 5 | 37
CC(C)NC(=O)NC1C2CC3CC(C2)CC1C3 (stereo unspecified) | 101 | 102 | -10 | 0
N#CCN(CC#N)C(=O)c1cc(-c2ccccc2)nc2ccccc12 | 101 | 104 | 17 | 2
CC(=O)O[C@H]1C(=O)[C@@]2(C)C([C@H](OC(=O)c3ccccc3)[C@]3(O)C[C@H](OC(=O)[C@H](O)[C@@H](NC(=O)c4ccccc4)c4ccccc4)C(C)=C1C3(C)C)[C@]1(OC(C)=O)CO[C@@H]1C[C@@H]2O (stereo partly specified) | 103&102&99 | 103&101&103 | -12&-1 | -10&-10
CS(=O)(=NC(=O)Nc1ccccc1)c1cccs1 (stereo unspecified) | 103 | 105 | -6 | 3

4 of these compounds in a different format.
CCn1cc(C(=O)O)c(=O)c2cc(S(=O)(=O)N(C)C)ccc21
- PV pol inh: 105
- PV pol inh intensity: 102
- Mtb MenB inh: -3
- MbtI inh: -4

O=C(NC(=S)Nc1ccccc1O)C1CCCCC1
- PV pol inh: 104
- PV pol inh intensity: 95
- Mtb MenB inh: -28
- MbtI inh: -3

N#Cc1ccc(OCC(=O)NCC2(N3CCCCC3)CCCCC2)cc1
- PV pol inh: 104
- PV pol inh intensity: 113
- Mtb MenB inh: -14
- MbtI inh: 10

N#C/C(=C(/O)CN1CCN(S(=O)(=O)c2ccc(Cl)cc2)CC1)c1nc2ccccc2[nH]1
- PV pol inh: 107
- PV pol inh intensity: 117
- Mtb MenB inh: -8
- MbtI inh: -2

Compound activity as filed in PubChem BioAssay.
